HPGD inh = HPGD (human) dehydrogenase inhibition; P15428; purified HPGD, NADH fluorescence kinetic, PGE2 substrate; Potency, µM, without a hit: top-dose activity change, negative = inhibition, most hits filed as inhibitors; 4.3% of 150,000 active; AID 894; active = well fitted inhibition curve with a large enough effect (not every such curve was filed as active); inconclusive = small, poorly fitted or top-dose-only effect, or another doubt; inactive = no such curve, though single readings can be large or run the other way;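 further: top concentration of the series not given in the record; plate controls included wells without enzyme; inactives centre near -10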
Target sequence (P15428 whole entry, looked up): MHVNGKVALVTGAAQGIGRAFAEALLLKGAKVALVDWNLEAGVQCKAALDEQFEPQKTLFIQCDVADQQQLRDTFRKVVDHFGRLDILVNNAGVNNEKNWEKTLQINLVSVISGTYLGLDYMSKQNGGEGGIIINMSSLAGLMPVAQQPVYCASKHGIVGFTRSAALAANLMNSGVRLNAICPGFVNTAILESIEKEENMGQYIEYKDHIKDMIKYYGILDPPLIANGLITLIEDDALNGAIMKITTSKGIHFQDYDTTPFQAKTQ
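NADH formation kinetics: reaction with 30 uM PGE2 and 1 mM NAD+ (final), 20 nM enzyme, Tris-HCl pH 8 with Tween 20, after 15 min compound preincubation at room temperature. Fluorescence change, last versus first of five reads.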
Starred values were filed as active, the others as inactive; ? = inconclusive. On the % scale 0 is the no-effect control and ±100 the full control effect; potency means the concentration at half of the fitted maximal effect.

Molecule	HPGD inh
COc1ccc(OC)c(NC(=O)CC2SC(=Nc3ccccc3)N(CCc3ccccn3)C2=O)c1 (stereo not given)	-1.4%
CCOC(=O)C1=C(C)Nc2ncnn2C1/C=C/c1ccccc1 (stereo not given)	-8.5%
CC(C)n1nnnc1-c1cccc(Cl)c1	-7.4%
C[C@@H](O)[C@@H]1NC(=O)c2cc([N+](=O)[O-])cc(I)c2NCC[C@@H](C(N)=O)NC(=O)CNC1=O	-7.3%
CC1CCCN(C(=O)CN2CCN(C(=O)c3ccco3)CC2)C1 (stereo not given)	-9.1%
NC(=S)Nn1c(-c2ccccc2)nc2ccccc2c1=O	-10.0%
O=C(CSc1nnc(-c2ccc(Cl)cc2)n1Cc1ccco1)NCc1ccc2c(c1)OCO2	-2.3%
CCOC(=O)c1ccc(NC(=O)CC2SC(=NC)N(C)C2=O)cc1 (stereo not given)	-9.1%
CCOC(=O)C1CCN(c2c(NCc3ccc(C(=O)NCCOC)cc3)c(=O)c2=O)CC1	3.55µM*
CC(=O)Nc1cc(OC(C)=O)c2nonc2c1OC(C)=O	-13.8%
COC(=O)c1cc(OC)c(OC)cc1NC(=O)Nc1ccc(OC)cc1	-22.4%
C=CCc1cc(Cl)ccc1OCCNCCCOC	-0.7%
Cc1cc([N+](=O)[O-])nn1CC(=O)Nc1ccc(Cc2ccncc2)cc1	-1.7%
CCC(=O)N1c2ccccc2NC2=C(C(=O)CC(c3ccco3)C2)C1c1ccco1 (stereo not given)	-8.7%
Cc1sc2nc(CSc3ccccc3)nc(NCCN(C)C)c2c1C	-5.9%
Cc1oc(=O)c(NC(=O)c2ccc(Cl)cc2)cc1C(=O)c1ccccc1	31.6µM*
O=C(O)CN(CC(=O)O)Cc1cc2c(-c3ccccc3C(=O)O)c3cc(CN(CC(=O)O)CC(=O)O)c(=O)cc-3oc2cc1O	?
CC1(C)NC(=O)N(CC(O)COc2ccc(-c3ccc(C#N)cc3)cc2)C1=O (stereo not given)	?
Cc1ccccc1S(=O)(=O)Nc1nc2ccccc2nc1NCCO	?
CCCSC1=N/C(=C/c2ccsc2)C(=O)N1c1ccccc1	-18.5%
Cc1ccc(C2N(c3ccc(Cl)c(Cl)c3)C(=O)C3CCCN32)o1 (stereo not given)	-4.4%
CCCCCCn1c(NCC)nc2c1c(=O)[nH]c(=O)n2C	-8.3%
O=C(COC(=O)Cc1ccsc1)NCC1CCCCC1	-3.4%
CC(C)C(=O)Nc1ccc(NC(=O)c2cccnc2)cn1	-0.3%
O=C(NCCc1ccccc1)c1cnc2sccn2c1=O	?
CCOC(=O)C1=C(C)N=C2SC(C(=O)OC)=CC(=O)N2C1c1ccc(F)cc1 (stereo not given)	-18.1%
CS(=O)(=O)N(CC(=O)Nc1ccc(CC#N)cc1)c1ccc(C23CC4CC(CC(C4)C2)C3)cc1	-9.3%
CCc1ccc(N2C(=O)C3C4CCC(C4=C(C)C)C3C2=O)cc1 (stereo not given)	5.9%
CC1Cc2ccccc2N1C(=O)c1cc2sccc2n1Cc1ccc(F)cc1 (stereo not given)	-16.3%
Cc1cc(Cl)c(S(=O)(=O)N2CCSCC2)cc1OCC(N)=O	-10.3%
CCOCCn1c(SC)nc2c1c(=O)[nH]c(=O)n2C	20µM*
CCCCNC(=O)c1onc(CSc2cc(C)ccc2C)c1C(=O)O	-19.7%
COCCCNC(=O)c1cc2c(=O)n(C)c3ccccc3c2n1C	?
O=C(c1nn2c(C(F)(F)F)cc(-c3ccco3)nc2c1Br)N1CCCc2ccccc21	-26.0%
CCOc1ccc(CNC(=S)N/N=C/c2cccnc2)cc1	-11.6%
Cc1cc(C)cc(N(CC(=O)N2CC=C(c3ccccc3)CC2)S(=O)(=O)c2c(C)noc2C)c1	-14.7%
COc1ccc(CC(=O)N2CC(C)CC(C)C2)cc1OC (stereo not given)	-7.4%
Cc1ccc(-n2nc3c(c2NC(=O)c2c(-c4ccccc4Cl)noc2C)CS(=O)(=O)C3)c(C)c1	-5.8%
CCCC(=O)Nc1ccc(NC(=O)CCc2ccccc2)cn1	-10.2%
COc1ccc2c(c1)C(c1ccccc1C)CC(=O)O2 (stereo not given)	?
Cc1cccc(NC(=O)/C=C/c2ccc3c(c2)OCO3)n1	?
OC[C@@H]1[C@@H](c2ccccc2)C(c2ccc(F)cc2)=NN1c1ccccc1	?
CC(C)CN(C(=O)CN1CCN(c2ccc(O)cc2)CC1)c1c(N)n(CC(C)C)c(=O)[nH]c1=O	4.3%
COc1ccc(NC(=S)N2CCN(C(=O)C3CCCO3)CC2)c(OC)c1 (stereo not given)	-6.9%
Nc1ccc(C(=O)OCCCc2nc3ccccc3[nH]2)cc1	-19.6%
COc1ccc(C2CC(=O)NC3=C2C(=O)CCC3)cc1Cl (stereo not given)	-22.1%
CCOC(=O)N1CCN(c2ccc(Cl)c(Cl)c2)CC1	-9.8%
C=CCSC1=N/C(=C\C=C\c2ccco2)C(=O)S1	-23.1%
Cc1cc(CCN2CCC(=O)NC2=S)ccc1OC(C)C	-19.4%
O=c1c2c(-c3ccccc3)csc2nc2n1CCC2	-24.7%

Other structures.
Molecule	HPGD inh
COc1cccc(C2NC(CCSC)(C(=O)O)C3C(=O)N(C(C)C)C(=O)C23)c1O (stereo not given)	-7.3%
CC(=C/c1ccc(C(C)C)cc1)/C=N/NC(=O)c1ccncc1	?
CCCCn1c(CN2CCN(C(=O)OCC)CC2)nc2c1c(=O)n(C)c(=O)n2C	-7.6%
Cc1ccc(S(=O)(=O)N2CCC(=O)N(C(COCc3ccc(Cl)cc3)Cc3ccccc3)CC2)cc1 (stereo not given)	-6.1%
Cc1cnc(C(=O)OCC(=O)NC(=O)NC(C)C)cn1	-7.7%
S=c1[nH]nc(-c2ccc3ccccc3n2)n1Cc1ccccc1	11.2µM*
CCOc1ccc(Br)cc1/C=N/O	11.2µM*
COc1ccccc1OC(C)C(=O)Nc1nc(-c2ccc(S(=O)(=O)N3CCOCC3)cc2)cs1 (stereo not given)	-7.6%
O=C(c1cccc(F)c1)N1CCN(C(=O)C2CC2)CC1	-0.5%
COc1ccc(Cl)cc1-c1nc(-c2ccc(Br)o2)no1	-3.2%
COc1ccccc1C(=O)Nc1cc2cc(Br)ccc2oc1=O	?
CCCC1=C(C(=O)OCC)C(c2cc(Cl)cc(OC)c2OCc2ccccc2)NC(=O)N1 (stereo not given)	-11.5%
CC1=C(C)SC(=C(C#N)c2nnc(N3CCOCC3)n2-c2ccccc2)S1	-12.6%
O=C1C2C3C=CC(C4CC34)C2C(=O)N1/N=C/c1ccc(-c2cccc([N+](=O)[O-])c2)o1 (stereo not given)	12.6µM*
O=C(Nc1nc2c(s1)C(=O)CCC2)c1ccccc1	-26.8%
CCN1CCN(CCCNC(=O)Cn2cc3c(n2)CCCC3)CC1	-8.6%
O=C(c1ccco1)N1CCN(C(=O)c2oc(=O)c3ccccc3c2-c2ccccc2)CC1	1.0%
C/C=C/C1=Cc2ccccc2C(CC(=O)OC)N1C(=O)OC (stereo not given)	-4.8%
COCCOC(=O)C1=C(C)NC2=C(C(=O)CCC2)C1c1ccc2c(c1)OCO2 (stereo not given)	-2.4%
CCN1CCN(C(c2cccs2)C(C)NS(=O)(=O)c2ccc(Br)cc2)CC1 (stereo not given)	-5.7%
O=CNC1CCCc2c1[nH]c1ccc(Cl)cc21 (stereo not given)	-7.2%
COc1ccc(/C=N/n2cnnc2SCc2ccc(OC)cc2)cc1	-8.3%
CCOc1cccc(C(=O)Nc2cccnc2)c1	-13.6%
Cc1ccc(C(=O)N(CC(=O)NC2CCCCC2)c2ccccc2C)s1	-8.8%
CCCS(=O)(=O)N1CCN(C(=O)COc2ccc(OC)cc2)CC1	2.8%

More results follow:
mol,HPGD inh
CC(C)CCNC(=O)c1cc(-c2ccncc2)nc2ccc(S(=O)(=O)N3CCOCC3)cc12,-28.2%
CN(CC(=O)N1CCN(C2CCCCC2)CC1)S(=O)(=O)c1cccc2nsnc12,-15.6%
CCOC(=O)C1=C2c3cc(OC)c(OC)cc3CC(C)(C)N2C(=O)C1=O,-2.3%
CC(=O)N1CCCc2cc(S(=O)(=O)NC(C(=O)NC3CCCCC3)C(C)C)ccc21 (stereo not given),-5.0%
Cc1cccc(NC(=O)c2sc3nc(-c4ccccc4)cn3c2C)n1,-26.8%
O=C(COC(=O)c1cc(C(F)(F)F)cc(C(F)(F)F)c1)NCc1ccc(Cl)cc1,-13.5%
Cc1cc(=O)oc(C)c1C(=O)OCC(=O)c1ccc(Cl)c(Cl)c1,-12.0%
O=C(CN(c1ccc(Cl)c(Cl)c1)S(=O)(=O)c1ccccc1)N1CCc2ccccc2C1,-5.5%
O=C1c2ccccc2C(=O)N1c1ccc(Cl)cn1,-14.2%
CC(C)c1ccc(OC(=O)NCCO)cc1,-11.2%
COCCCNCCOCCOc1ccc(Cl)cc1C(C)(C)C,-15.4%
CCOc1nc(SCCOc2ccc(Cl)cc2Cl)nc(N(C)C)n1,-22.5%
Cc1nc2ccc(NC(=O)c3ccc([N+](=O)[O-])cc3)cc2s1,0.9%
C=CCn1c(SCC(=O)Nc2sccc2C(N)=O)nc2sc(C)c(C)c2c1=O,-24.0%
Cc1c(NC(=O)COC(=O)C(c2ccc(Cl)cc2)C(C)C)c(=O)n(-c2ccccc2)n1C (stereo not given),-1.0%
CC(=O)c1c(C)[nH]c(C(=O)OCC(=O)NCCc2ccc(Cl)cc2)c1C,-6.7%
COc1cc(/C=C2\SC(=S)N(CC(=O)Nc3cccnc3)C2=O)cc(OC)c1OC,-7.4%
Nc1ccc(S(=O)(=O)NNC(=O)C(=O)NNc2ccccn2)cc1,-4.2%
CCOc1cc(C(=O)N/N=C(\C)Cc2ccc(OC)cc2)cc(OCC)c1OCC,-10.2%
COC(=O)c1ccc(C23CC4(C2)[C@H](CN(CC2CCCCC2)[C@@H]4c2ccccc2)C3c2ccc(C(F)(F)F)cc2)cc1 (stereo not given in full),-3.8%
S=c1[nH]cnc2scc(-c3ccccc3)c12,-11.4%
CC1CCCC(NC(=O)COC(=O)CN2C(=O)C3CCCCC3C2=O)C1C (stereo not given),-18.4%
O=C(Nc1ccccc1C(=O)N/N=C/c1ccco1)c1ccccc1Cl,-9.0%
O=C(c1ccccc1)N1CCN(C(=O)c2ccccc2Br)CC1,-4.5%
O=C(Nc1ccc(Cl)cn1)c1ccccc1F,-7.7%
Cc1ccc(S(=O)(=O)N=Nc2c(O)[nH]c3ccccc23)cc1,-2.5%
Cc1ccc(S(=O)(=O)c2cc(C#N)c(=O)[nH]c2N)cc1,-9.7%
CC1CN(C(=O)CSc2nnc(-c3ccncc3)n2-c2ccccc2)CC(C)O1 (stereo not given),?
O=C(Nc1ccc(CN2CCOCC2)cc1)c1cccc(F)c1,-2.4%
CC(=O)N1CCc2cc(S(=O)(=O)NC3CCCc4ccccc43)ccc21 (stereo not given),-25.0%

Marked active in HPGD inh, of those listed so far:
mol,HPGD inh
CCOC(=O)C1CCN(c2c(NCc3ccc(C(=O)NCCOC)cc3)c(=O)c2=O)CC1,3.55µM*
Cc1oc(=O)c(NC(=O)c2ccc(Cl)cc2)cc1C(=O)c1ccccc1,31.6µM*
CCOCCn1c(SC)nc2c1c(=O)[nH]c(=O)n2C,20µM*
S=c1[nH]nc(-c2ccc3ccccc3n2)n1Cc1ccccc1,11.2µM*
CCOc1ccc(Br)cc1/C=N/O,11.2µM*
O=C1C2C3C=CC(C4CC34)C2C(=O)N1/N=C/c1ccc(-c2cccc([N+](=O)[O-])c2)o1 (stereo not given),12.6µM*

Next section:
mol,HPGD inh
O=C(OCC1CC(c2ccccc2Cl)=NO1)c1ccc(Br)cc1 (stereo not given),-16.5%
Cc1ccc(-c2cc(-c3cccs3)[nH]n2)c(O)c1,-10.6%
COc1cc2c(cc1OC)C(C(=O)NCCN1CCOCC1)C1c3ccccc3CCN1C2=O (stereo not given),-7.0%
CCN(CC)CCCNC(=S)N1CCn2c(nc3ccccc32)C1,-13.4%
COc1ccc(S(=O)(=O)N(C)CC(=O)NC2CCCCC2)cc1Cl,-8.2%
COc1ccccc1-c1c(C(F)(F)F)oc2cc(OCC(=O)Nc3ccccc3C(F)(F)F)ccc2c1=O,-4.5%
Cc1cccc(NC(=O)N2CCCC2C(=O)NCc2cccs2)c1 (stereo not given),-3.8%
COC(=O)CN(C(=S)Nc1ccc(Cl)cc1)C1CC(=O)N(c2ccc(OC)cc2)C1=O (stereo not given),-6.1%
Cc1cc(NC(=O)CCC(=O)N(CCC(C)C)C(C(=O)NC2CCCC2)c2cccnc2)no1 (stereo not given),-4.1%
COc1ccc(NS(=O)(=O)c2cc(OC)ccc2NC(=O)c2cc(C)oc2C)cc1,-19.3%
CCOC(=O)N1CCN(C(=O)Cn2c(=O)sc3ccccc32)CC1,-2.2%
COCCOC(=O)c1c(C)oc2ccc(NS(=O)(=O)c3ccc(C(=O)O)cc3)cc12,-14.0%
CCC1(CC)C(=O)NC(=O)NC1=NCCc1ccc(O)cc1,-24.9%
COc1ccc(NC(=O)CSc2cccc3cccnc23)c(OC)c1,-16.8%
CCn1cc(Br)c(C(=O)Nc2cccc(Cl)c2)n1,-3.7%

Fetched by structure from the list above:
mol,HPGD inh
COc1ccccc1-c1c(C(F)(F)F)oc2cc(OCC(=O)Nc3ccccc3C(F)(F)F)ccc2c1=O,-4.5%
CCn1cc(Br)c(C(=O)Nc2cccc(Cl)c2)n1,-3.7%

Additional compounds.
mol,HPGD inh
COc1ccc2[nH]c(O)c(NC(C)=O)c2c1,0.5%
Cc1ccc(-c2nnn(CC(=O)N3CCN(c4ccccc4)CC3)n2)o1,-1.3%
O=C(CSc1nnnn1-c1ccccc1)NC(=O)Nc1ccc2c(c1)OCCO2,-7.0%
CCCCC1=CC2=CC(=O)C(C)(OC(=O)c3cccs3)C(=O)C2=CO1 (stereo not given),-6.5%
Cc1ccc(Oc2ccccc2/C=C2\SC(=O)N(C)C2=O)cc1,-21.9%

Not all compounds are listed (hit frequency here may not be typical).
